Screening data as filed in PubChem BioAssay.
HIV TAR-Tat: TAR RNA-Tat peptide displacers, HIV-1, primary screen, biochemical, FRET, FAM/TAMRA-labeled Tat. HIV-1 TAR RNA, Tat peptide displacement FRET; stronger effect = higher value. z-score (concentration not given with the values). 0.6% of 100,000 active. AID 1259389, 2018;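 note: score is relative to mean and SD of negative controls; some compounds called inactive have numbers as strong as hits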
CDC25B-CDK2 inh: primary biochemical HTRF screen for blockers of M-phase inducer phosphatase 2 binding to CDK2/cyclin A; P30305+P24941; HTRF CDC25B-CDK2/CyclinA binding, anti-His/anti-Flag; stronger effect = higher value; z-score (no concentration beside the values); 0.72% of 94,000 active; AID 1259370, 2018;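 note: score is relative to mean and SD of negative controls; strong numbers were not always called active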
Numbers without * were called inactive; / = not tested or not shown.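 Rule for the calls: active = z-score from 3 up in half or more of its runs; inactive = the rest.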

SMILES	HIV TAR-Tat	CDC25B-CDK2 inh
CCOc1ccc(-c2noc(=O)[nH]2)cc1OC	2.4	-1.9
O=C(Nc1cccnc1)C1CCN(S(=O)(=O)c2cccnc2)CC1	2.1	/
CCCNc1nc(Nc2ccc(Cl)cc2)c2cnn(C)c2n1	-1.3	/
CCOc1ccc(N2CC(c3nc4ccccc4[nH]3)CC2=O)cc1 (stereo not drawn)	0.48	-1.2
O=C(NCCc1csc(-c2cccs2)n1)C1CCN(C(=O)C2CCCC2)CC1	2	/
O=C(C1CCC(CNc2c(N3CCOCC3)c(=O)c2=O)CC1)N1CCN(c2ccccc2)CC1 (stereo not drawn)	/	-0.96
CCOc1cc(-c2nc(-c3ccc(OC)cc3)no2)cc(OCC)c1OCC	/	-0.23
O=C(c1ccc(CN2C(=O)CSc3ncccc32)cc1)N1CCOCC1	2	/
COc1ccccc1OCCn1c(=O)sc2ccccc21	0.7	-0.49
O=C(c1cccnc1)N1CCN(C(=O)c2ccco2)CC1	1.9	-0.68
O=C(NC1CCCCC1)c1cc(-c2ccc(Br)cc2)on1	1.8	-2.4
CC(=O)N1CCc2cc(S(=O)(=O)NC(CC(C)C)C(=O)N3CCc4ccccc4C3)ccc21 (stereo not drawn)	-0.16	-0.12
Cc1ccc(C2C(C(=O)c3ccco3)=C(O)C(=O)N2c2nnc(C)s2)cc1 (stereo not drawn)	-2.4	-1.6
CCSCCOC(=O)C1=C(C)NC2=C(C(=O)CCC2)C1c1cc2c(cc1Br)OCO2 (stereo not drawn)	-0.52	-0.78
CCCc1ccc(-c2ccc(C(N)=O)cc2)cc1	/	-1.1
CC(=O)Oc1ccc(C2Nc3ccc(C)cc3C3C=CCC32)c(OC(C)=O)c1 (stereo not drawn)	-5.2	0.59
Cc1cc(C)c(S(=O)(=O)Nc2cc(N3CCCS3(=O)=O)ccc2C)cc1C	0.91	/
CC1=C(C#N)C(c2ccco2)C(C#N)=C(C)N1	/	-0.67
O=C1NC(=O)C(CCCCO)N1 (stereo not drawn)	/	-1.8
COc1ccc2nc(NC(=O)c3nn(C)c4c3COc3ccccc3-4)sc2c1	1.4	-1.3
CN(C)CCCn1cc(C2=C(c3c[nH]c4ccccc34)C(=O)NC2=O)c2ccccc21	-9.6	/
COc1ccc(OC)c(C2=NOC(C(=O)Nc3ccc(OC)c(OC)c3)C2)c1 (stereo not drawn)	0.43	0.02
CCOc1ccc(C2C=C(C(=O)O)Nc3nnnn32)cc1 (stereo not drawn)	1.3	/
COc1cccc(CNS(=O)(=O)c2cc(Br)cnc2N)c1	3.4	0.89
COc1ccc(NC(=O)N2c3ccccc3Sc3ccccc32)cc1OC	0.84	0.42

(more compounds)
SMILES	HIV TAR-Tat	CDC25B-CDK2 inh
Cc1cc2nc(CSc3nc4ccc(NC(=O)C(C)(C)C)cc4s3)cc(=O)n2o1	0.47	/
Fc1ccc(-c2noc3ncnc(NC4CCCCC4)c23)cc1	0.84	/
CCN(C(=O)c1sc2nc3n(c(=O)c2c1C)CCCCC3)c1ccccc1	1.1	/
Cc1cc(C)c2c(c1)-c1cc(C)nn1C(c1ccc(C(=O)O)cc1)N2 (stereo not drawn)	1.7	-3.3
C=CCNC(=O)/C(C#N)=C/N(C)C	/	-2.8
CC(C)(COC(=O)c1cc2ccccc2oc1=O)Nc1ccc(C(F)(F)F)cc1[N+](=O)[O-]	/	0.96
CCCCC(=O)Nc1nnc(SCc2cc(=O)n3ccsc3n2)s1	-0.12	/
CCOC(=O)c1ccc(CSc2n[nH]c(C)n2)o1	0.93	-0.76
O=C(O)c1ccccc1/C=N/Nc1cc(Cl)ccc1Cl	/	-1.4
O=C(Nc1ncnc2sc3c(c12)CCCC3)c1ccc(F)cc1	2.6	-1.3
O=C1CSc2ccc(C(=O)NCc3ccc4c(c3)OCO4)cc2N1	0.97	/
c1ccc(-c2csc(Nc3nc(N4CCOCC4)nc(N4CCOCC4)n3)n2)cc1	0.68	-0.84
O=C1CCc2cc(S(=O)(=O)N3CCc4ccccc4C3)ccc2N1	/	-0.47
O=S(=O)(CCc1ccccc1)NCCc1csc(-c2ccc(Cl)cc2)n1	0.01	/
Cc1cc(-c2ccc(C)c(S(=O)(=O)NCCC(C)C)c2)on1	0.29	/
COc1ccccc1-c1cc2nc(C)cc(NC(C)c3ccccc3)n2n1 (stereo not drawn)	1.3	1.6
COc1cc2c(=O)n(CC3CCCO3)c(=O)n(CC(=O)c3ccc4c(c3)OCO4)c2cc1OC (stereo not drawn)	1.6	-1.2
Cc1cc(C)nc(NS(=O)(=O)c2ccc(-n3cccc3)cc2)n1	/	-0.03
COC(=O)/C(=C\N(C)C)S/C(C#N)=C/N(C)C	/	-0.88
COc1cc2c(c(OC)c1OC)C(c1ccc(SC)cc1)C1=C(CC(C)(C)CC1=O)N2 (stereo not drawn)	/	-2.7
CC1=C(C(=O)OC(C)C)C(c2ccc(C)cc2)C2=C(CCCC2=O)N1 (stereo not drawn)	-0.17	-1.1
COc1ccc(S(=O)(=O)[C@H]2CS(=O)(=O)C[C@@H]2NCCc2ccccc2OC)cc1	0.06	-0.99
CC1=C(c2ccc(C(C)C)cc2)S(=O)(=O)N=C1N1CCC(C(N)=O)CC1	-0.25	-1.8
CC1CCN(S(=O)(=O)c2ccc3c(c2)oc(=O)n3CC(=O)N2CCc3ccccc3C2)CC1	0.96	0.47
CC(C)N1C(=O)C(O)(CC(=O)c2ccc(-n3cccc3)cc2)c2ccccc21 (stereo not drawn)	-0.39	-0.9

(next part)
SMILES	HIV TAR-Tat	CDC25B-CDK2 inh
O=C(CCCn1c(=O)c2cccn2c2ccccc21)NCCC1=CCCCC1	1.9	/
CN(CC(=O)NCCc1cccs1)S(=O)(=O)c1ccc2c(c1)CCCC(=O)N2	0.12	/
CC1CCCCN1CCCNC(=O)Cn1ncn2nc(-c3cccs3)cc2c1=O (stereo not drawn)	-0.42	-1.7
CCCN1CCN(C(=O)CCc2c(C)nc3c(c(C)nn3C(C)(C)C)c2C)CC1	2.6	-1.2
CN(C)CCN1C(=O)C(=O)/C(=C(/O)c2ccc(Cl)cc2)C1c1ccco1 (stereo not drawn)	-0.34	-2.2
CC1CC(=O)Nc2cc(S(=O)(=O)Nc3ccc(Cl)cn3)ccc2S1 (stereo not drawn)	1.2	/
COC(=O)C1=C(C)NC2=C(C(=O)CC(c3ccccc3)C2)C1c1ccccc1Br (stereo not drawn)	1	-2.5
CCC1CCCCN1S(=O)(=O)c1ccc(N2CCCCS2(=O)=O)cc1 (stereo not drawn)	0.94	/
Cc1ccc(-c2csc(-c3cc4c([nH]c3=O)CC(C)(C)CC4=O)n2)cc1	0.01	-2
COc1ccc(OC)c(CCNC(=O)C2CC3CCCN3C23C(=O)Nc2ccccc23)c1 (stereo not drawn)	-1.4	/
CSC1=NC2(CCCCC2)CC12C=CC(=O)C=C2	/	0.86
O=C(NC1CC1)C1CCN(c2nc3ncc([N+](=O)[O-])cc3o2)CC1	1.3	-0.98
CCOc1ccc(-c2noc(CSc3nnc(C)n3-c3ccc(C)c(C)c3)n2)cc1	0.57	1.8
Cc1cc(N2C(=O)c3ccc(-c4ccco4)n3CC2(C)C(=O)NC2CCCC2)ccc1Br (stereo not drawn)	-1.9	/
C1CCN(CCC2CCCCN2)CC1 (stereo not drawn)	/	-0.91
O=c1oc2ccc([N+](=O)[O-])cc2cc1-n1cccc1	/	-1.9
O=C(CC1CSc2ccccc2NC1=O)NC1CCCCC1 (stereo not drawn)	0.54	/
CCCCCCNC(=O)Cn1cnc2c1c(=O)n(C)c(=O)n2C	0.11	-0.93
COc1cc(CNC(=O)c2sc3nc(-c4ccncc4)ccc3c2N)cc(OC)c1	1.2	-1.5
CCCS(=O)(=O)N1CCCc2ccc(NS(=O)(=O)c3ccc(C)c(C)c3)cc21	1.3	/
Cc1cc(C)cc(N(C)S(=O)(=O)c2nnc(NC(=O)C(C)C)s2)c1	3.1	-1.2
Brc1ccc(C2CC(c3cccs3)Nc3nnnn32)cc1 (stereo not drawn)	2.2	/
CCC(C)(C)NS(=O)(=O)c1ccc2c(c1)NC(=O)CCS2	0.48	/
O=C(CN1c2ccccc2NC2=C(C(=O)CCC2)C1c1ccco1)NCc1ccco1 (stereo not drawn)	1.3	/
O=C(O)CSc1c2c(nc3cc(C(=O)NCC4COc5ccccc5O4)ccc13)CCC2 (stereo not drawn)	2.3	-1.6

New compounds follow.
SMILES	HIV TAR-Tat	CDC25B-CDK2 inh
O=C(c1ccc(N2C(=O)CCS2(=O)=O)cc1Cl)N1CCOCC1	0.2	-1.6
CCC1CCc2c(sc(NC(=O)c3ccc4c(c3)OCCO4)c2C#N)C1 (stereo not drawn)	-1.5	/
CC(C)c1ccc(N(C(=O)c2ccc3c(c2)OCO3)C2C=CS(=O)(=O)C2)cc1 (stereo not drawn)	/	-1.1
COc1cc(C)c(Cl)cc1S(=O)(=O)n1ccnc1C(C)C	-2.9	-1.7
CSc1nc(-c2ccccc2)nc(Nc2ccccc2)c1C#N	/	-1.8
Cc1ccc(C(=O)Nc2ccc([N+](=O)[O-])cc2)cc1S(=O)(=O)Nc1cccc(C(=O)O)c1	/	-2.7
O=C(CCc1nnc2ccc(N3CCCC3)nn12)N1CCCC1	0.74	/
O=C(NCCN1CCOCC1)c1csc2c1CCCCC2	-0.32	-1.4
CN(Cc1ccccc1)C(=O)CN1c2ccc(Br)cc2-c2ccccc2S1(=O)=O	1.2	-2.6
Cc1nn(CC(=O)NCCC2=CCCCC2)c(=O)c2cc3cc(F)ccc3n12	0.16	-1.5
CC1=C(c2ccc(Cl)cc2)S(=O)(=O)N=C1N1CCN(c2ccccc2)CC1	0.48	-1.1
CC1=C(C(=O)OC2CCCCC2)C(c2ccc(N(C)C)cc2)C2=C(CC(C)(C)CC2=O)N1 (stereo not drawn)	1.6	-1.2
CCOC(=O)C(NC(=O)C1CCC(c2ccc(Cl)cc2)CC1)C(C)C (stereo not drawn)	/	-1.6
O=c1[nH]c2ccc(Cl)cc2c(O)c1Cc1ccccc1	/	-0.74
COc1ccc(NC(=O)CN2N=NC3C(=O)N(c4ccc(F)c(F)c4)C(=O)C32)cc1OC (stereo not drawn)	0.61	/
CCSc1nnc(NC(=O)c2sc(C)nc2C)s1	0.9	-0.59
Clc1ccc(N2CCN(Cc3nnc(-c4ccc5c(c4)OCO5)o3)CC2)cc1	1.9	-1.6
CCc1ccc(CN=C2NS(=O)(=O)C(c3ccc(OC)cc3)=C2C)cc1	-0.24	-0.75
CC1=C(C(=O)NC(C)CCc2ccco2)C2(CCCCC2)OC1=O (stereo not drawn)	1	/
O=C(Nc1ccc(Cl)cc1)O/N=C1\CCCCC1Cn1ccnc1 (stereo not drawn)	/	-4.5
Cc1cc(CNC(=O)Nc2ccccc2)c(C)n1-c1cccc(Cl)c1	0.27	/
O=C(C1COc2ccccc2O1)N1CCOCC1 (stereo not drawn)	2.5	-3.3
Cc1nn(-c2ccccc2)nc1CNS(=O)(=O)c1ccc(N2CCOCC2)nc1	/	-2.2
OC(c1cc(C(F)(F)F)nc2c(C(F)(F)F)cccc12)C1CCCCN1 (stereo not drawn)	-0.86	/
O=S1(=O)C[C@H](N2CCN(c3ncccn3)CC2)[C@@H](S(=O)(=O)c2ccc(F)cc2)C1	-0.88	-1.8

(cont.)
SMILES	HIV TAR-Tat	CDC25B-CDK2 inh
Cn1ncc2c(N3CCN(c4ccccc4Cl)CC3)ncnc21	1.6	/
Cc1nc2nc(NCc3ccc(F)cc3)nn2c(C)c1Cl	0.71	1.1
CC(=O)N1c2ccccc2C(=O)C1N1CCN(c2ccccc2F)CC1 (stereo not drawn)	0.48	/
O=C(Nc1cccc2c1CCCC2)N1CCOc2ccc(Cl)cc21	1.9	/
Cc1oc2ccc(OCC(=O)c3ccccc3)cc2c1C(=O)OC(C)C	2.3	-3.8
c1ccc(-c2noc(-c3cccnc3NCc3ccco3)n2)cc1	1.6	-1.3
CCn1cc(C(=O)OCc2ccc(F)cc2)c(=O)c2ccc(C)nc21	0.67	0.34
CCOc1ccc(-c2noc(-c3nnn(-c4ccc(F)cc4)c3N)n2)cc1	0.66	/

In the list so far, these contain a Cl atom.
SMILES	HIV TAR-Tat	CDC25B-CDK2 inh
CCCNc1nc(Nc2ccc(Cl)cc2)c2cnn(C)c2n1	-1.3	/
O=C(O)c1ccccc1/C=N/Nc1cc(Cl)ccc1Cl	/	-1.4
O=S(=O)(CCc1ccccc1)NCCc1csc(-c2ccc(Cl)cc2)n1	0.01	/
CN(C)CCN1C(=O)C(=O)/C(=C(/O)c2ccc(Cl)cc2)C1c1ccco1 (stereo not drawn)	-0.34	-2.2
CC1CC(=O)Nc2cc(S(=O)(=O)Nc3ccc(Cl)cn3)ccc2S1 (stereo not drawn)	1.2	/
O=C(c1ccc(N2C(=O)CCS2(=O)=O)cc1Cl)N1CCOCC1	0.2	-1.6
COc1cc(C)c(Cl)cc1S(=O)(=O)n1ccnc1C(C)C	-2.9	-1.7
CC1=C(c2ccc(Cl)cc2)S(=O)(=O)N=C1N1CCN(c2ccccc2)CC1	0.48	-1.1
CCOC(=O)C(NC(=O)C1CCC(c2ccc(Cl)cc2)CC1)C(C)C (stereo not drawn)	/	-1.6
O=c1[nH]c2ccc(Cl)cc2c(O)c1Cc1ccccc1	/	-0.74
Clc1ccc(N2CCN(Cc3nnc(-c4ccc5c(c4)OCO5)o3)CC2)cc1	1.9	-1.6
O=C(Nc1ccc(Cl)cc1)O/N=C1\CCCCC1Cn1ccnc1 (stereo not drawn)	/	-4.5
Cc1cc(CNC(=O)Nc2ccccc2)c(C)n1-c1cccc(Cl)c1	0.27	/
Cn1ncc2c(N3CCN(c4ccccc4Cl)CC3)ncnc21	1.6	/
Cc1nc2nc(NCc3ccc(F)cc3)nn2c(C)c1Cl	0.71	1.1
O=C(Nc1cccc2c1CCCC2)N1CCOc2ccc(Cl)cc21	1.9	/
